Calb biofilm kill – clotrimazole potentiators killing C. albicans biofilm, primary screen, 4-compound mixtures. C. albicans biofilm persisters + clotrimazole, fluorescence viability; primary screen in compound mixtures of four per well. inhibition, % at 7.6 µM. 120,000 compounds, 0.02% hits. AID 1242, 2008;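 active means inhibition above 30.3% in the primary screen of four-compound pools, then above 30% when the compound was retested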;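 further: compounds exposed to preformed 24 h biofilms for 48 h; the number belongs to the whole pool; some results filed as inactive read as strong as hits; inactives centre near 12; 0% = biofilm with clotrimazole alone and 100% = kill control; retested singly at about 60 µM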
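Test system: C. albicans CAF4-2 wild-type biofilms; buffer or medium: RPMI/MOPS medium, pH 7.0; schedule: 24 h biofilm formation, then 48 h compound exposure, 37 °C; detection: Alamar Blue fluorescence; measure: percent inhibition of biofilm viability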
Active calls of the source: *. Not all compounds are listed; rates above refer to the full screens.

SMILES	Calb biofilm kill
Cc1ccc(/C=C2\SC(=S)N(CCCC(=O)Nc3ccc(O)cc3)C2=O)cc1	22
O=C(Nc1cccc(Cl)c1)Nc1sccc1-c1nc2ccccc2s1	15
COc1cc2c(cc1OC)C(c1ccccc1)N(C(=O)CSCC(=O)O)CC2 (stereo not given)	15
Cc1ccc(S(=O)(=O)Nc2nc(C)c(C(=O)Nc3ccccc3)s2)cc1	21
O=C(O)c1cccc(S(=O)(=O)Nc2ccccc2-c2ccccc2)c1	2
COc1ccc(CCNC(=S)Nc2cccc3ccccc23)cc1	4
O=S(=O)(c1ccc2oc(=S)[nH]c2c1)N1CCCCC1	9
O=C(NNC(=O)c1ccc2ncccc2c1)c1ccc(Cl)cc1	7
C=CCN(c1ccc(C(=O)Nc2ccc3c(c2)OCO3)cc1)S(C)(=O)=O	13
Cc1nn(C)c(C)c1NC(=O)/C(C#N)=C\N(C)C	19
COC(=O)c1scc(C)c1NC(=O)CSc1ccc(Cl)cc1	14
Cc1ccc(C(=O)O/N=C(\c2ccccc2)c2ccncc2)cc1	12
Cc1csc(SCC(=O)N(C)c2c(N)n(Cc3ccccc3)c(=O)[nH]c2=O)n1	1
COc1ccccc1NS(=O)(=O)c1cccc(C(=O)N/N=C2\CC(=O)CC(C)(C)C2)c1	24
O=C(Cc1c(F)cccc1Cl)Nc1ccccc1N1CCCCC1	9
COc1cc(N(C(=O)Cc2cccs2)C(C(=O)NC2CCCCC2)c2ccc(C)cc2)ccc1-n1cnnn1 (stereo not given)	19
OC1CCN(c2c3c(nc4cc(-c5ccc(Cl)cc5)nn24)CCC3)CC1	8
CC(C)[C@@H](N)C(=O)N/N=C/c1ccc2ncccc2c1	10
O=C(/C=C/c1cccc(Br)c1)NCC1CCCCC1	17
C=CCN(c1cccc(C(F)(F)F)c1)S(=O)(=O)c1cccc(C(=O)OCC(=O)NC)c1	21
CC(=O)[C@@H]1[C@@H]2C(=O)N(c3ccccc3F)C(=O)[C@@H]2[C@H]2c3ccccc3C=NN12	21
CCSc1nc2c(c(=O)n1-c1ccc(F)cc1)SCC2	8
CCNc1ncnc2c1cnn2C	6
Cc1ccc(/C=C2/C(=O)N=C(N)N2C)s1	12
CC(SCC(=O)O)c1nc2ccccc2[nH]1 (stereo not given)	27
Cn1nc(NC(=O)CC23CC4CC(CC(C4)C2)C3)c2c(F)cccc21	30
CC(=O)c1ccc(NC(=O)c2ccc(S(=O)(=O)c3ccccc3)cc2)cc1	26
O=C(CSc1nc2cc(Cl)ccc2c(=O)n1Cc1ccco1)Nc1ccc(S(=O)(=O)N2CCOCC2)cc1	12
COc1ccc(N2C(=O)[C@@H]3[C@H](C2=O)[C@H]2c4ccccc4C=CN2[C@@H]3C(C)=O)cc1	7
O=C(NC(=S)Nc1ccccc1N1CCOCC1)c1ccc(-c2cccc(Cl)c2)o1	15

An excerpt from above in order of count of non-hydrogen atoms, lowest first.
SMILES	Calb biofilm kill
CCNc1ncnc2c1cnn2C	6
O=C(Cc1c(F)cccc1Cl)Nc1ccccc1N1CCCCC1	9
Cc1ccc(/C=C2\SC(=S)N(CCCC(=O)Nc3ccc(O)cc3)C2=O)cc1	22
O=C(CSc1nc2cc(Cl)ccc2c(=O)n1Cc1ccco1)Nc1ccc(S(=O)(=O)N2CCOCC2)cc1	12
COc1cc(N(C(=O)Cc2cccs2)C(C(=O)NC2CCCCC2)c2ccc(C)cc2)ccc1-n1cnnn1 (stereo not given)	19

New compounds follow:
SMILES	Calb biofilm kill
CCC[C@@H]1C[C@@]1(CCC)[C@@H](NC(=O)c1ccccc1)c1ccc(C(=O)OC)cc1	-9
COc1cccc(/C=N/NC(=O)CC(=O)NCCc2ccccc2)c1OC	8
CCOC(=O)c1ccc(NC(=O)CSc2nnc(C3CCCCC3)n2C)cc1	12
C=CCn1c(CSCc2ccccc2)nnc1SCC(=O)N1CCN(c2ccccc2)CC1	17
CSc1nc(-c2ccccc2)c(C#N)c(=O)n1C	-2
CC(=O)Nc1scc(-c2ccccc2)[n+]1-c1ccc(C)cc1	15
CCc1cc2c(C)cc(=O)oc2cc1Oc1ncccc1[N+](=O)[O-]	11
O=C(NCCOCCNC(=O)OCc1ccccc1)OCc1ccccc1	6
NC(=O)Cc1nc2scc(-c3ccc(Cl)cc3)c2c(=O)[nH]1	5
COc1ccccc1-n1c(C)nnc1SCC(=O)NCc1ccccc1	10
O=C(/C=C/c1ccc(OC(F)F)cc1)OCC(=O)N1CCN(C(=O)c2ccco2)CC1	10
CC(C)(C)C(=O)N1CCC(O)(CS(=O)(=O)c2ccc(Cl)c(Cl)c2)CC1	15
CCc1ccc(CN(C)Cc2nc(Cc3cccc(C(F)(F)F)c3)no2)nc1	5
Cc1sc2nc(CSCC(=O)N(C)c3ccccc3)[nH]c(=O)c2c1C	11
COC(=O)N/N=C\c1cc2c(cc1Br)OCO2	13
CCOC(=O)c1cn2c(C)cccc2n1	9
O=C(N/N=C/c1cccc(O)c1)c1ccc(COc2cccc3cccnc23)cc1	16
CCn1cnc2c1c(=O)n(CC(=O)Nc1ccc(C(N)=O)cc1)c(=O)n2Cc1ccccc1	15
CC(=O)Nc1ccccc1C(=O)C(=O)Nc1ccc(C(=O)NCC2CCCO2)cc1 (stereo not given)	2
COCC1CCN(Cc2cn[nH]c2-c2cc3ccccc3o2)C1 (stereo not given)	10
CC1=C(C(=O)OC(C)C)C(c2cccc([N+](=O)[O-])c2)n2c(cc(=O)[nH]c2=S)N1 (stereo not given)	20
CCC(=O)Nc1cc(C(=O)O)ccc1Sc1ccccc1	25
O=C(NCCSC1CCCCC1)c1ccccc1	7
CCN(CC)CCNC(=S)Nc1ccc2nc3n(c(=O)c2c1)CCCCC3	15
CCCN(CCC)S(=O)(=O)c1ccc(N2CCCC2=O)c([N+](=O)[O-])c1	12
O=C(CS(=O)(=O)c1ccccc1)NCc1ccco1	24
CN(CCC#N)C(=O)COC(=O)c1ccccc1C(=O)c1ccc(Cl)c([N+](=O)[O-])c1	8
CC(C)c1onc(C(=O)NCc2ccccn2)c1[N+](=O)[O-]	17
CCOc1ccc(NC(=O)C2CSC(c3ccncc3)=N2)cc1 (stereo not given)	6
O=C(Nc1ccc(C(O)(C(F)(F)F)C(F)(F)F)cc1)c1ccc(Cl)c([N+](=O)[O-])c1	6
Nc1ccc(OCc2ccco2)cc1	20
CCOc1ccc(Cc2c(Cl)nc(SC)nc2N(C)C)cc1	17
O=C(NC(=S)NNC(=O)c1cnccn1)c1ccc(Cl)cc1	21
Cc1nnc(NC(=O)c2nn(CC(C)C)c(=O)c3ccccc23)s1	12
O=C(CCN1C(=O)C2C3C=CC(C4CC34)C2C1=O)Oc1ccc(Br)cc1 (stereo not given)	11
CNS(=O)(=O)c1ccc(N2CCCC2=O)c([N+](=O)[O-])c1	-15
COC(=O)C1CCN(c2ccc(C(N)=O)cc2[N+](=O)[O-])CC1	12
COCCNC(=O)NC(=O)COC(=O)c1ccc2[nH]c3c(c2c1)CCCC3	11
CCCCNC(=S)N(Cc1c(C)noc1C)c1ccccc1	-2
CC(C)(C)SCCNS(=O)(=O)c1ccc(C#N)cc1	20
Cc1cccc(NC2=NC(=S)N(CC#N)C23CCCCC3)c1	5
C=CCCOc1ccccc1C(N)=O	16
COc1ccc2c(C)c(Cc3ccccc3)c(=O)oc2c1OC	13
C#CCOCCOCCOCCNc1nc(N2CCN(C(=O)[C@H](CCCCN)n3cc(C(N)[C@H](C)CC)nn3)CC2)nc(N2CCN(C(=O)[C@H](CCC(=O)O)n3cc(C(N)[C@H](C)CC)nn3)CC2)n1 (stereo not given in full)	13
O=C(COC(=O)C1CCCCC1)Nc1ccc([N+](=O)[O-])cc1	4
O=C(NC1CC(=O)c2sccc21)c1ccc(Cl)cc1Cl (stereo not given)	-9
Cc1ccccc1NS(=O)(=O)c1cc(OCC(N)=O)c(C)cc1Cl	9
CCO[C@@H]1OC(C(=O)NCc2ccccc2)=C[C@H](c2ccccc2)[C@H]1CCCO	-2
COC(=O)c1ccc([C@H]2C=C(C(=O)O)O[C@@H](OCc3ccc(CO)cc3)C2)cc1	24
COc1cc(C(=O)Nc2ccc3c(c2)N(C(=O)CCN(C)C)c2ccccc2CC3)cc(OC)c1OC	16
CC(CC(=O)O)C(=O)c1ccc(Cl)c([N+](=O)[O-])c1 (stereo not given)	9
COc1cc(C(=O)NCc2ccc3c(c2)cc(C)n3C)cc(OC)c1OC	16
Cc1cc(=O)n2c(n1)NC(=NCc1ccccc1)NC2c1ccccc1 (stereo not given)	-6
Cc1cccc(NCC(=O)c2c(N)n(C)c(=O)n(C)c2=O)c1C	-2
CCC(C)[C@@H](N)C(=O)N/N=C/c1cccc2nccnc12 (stereo not given in full)	20
COc1ccc(S(N)(=O)=O)cc1C(=O)N1CCCC1	12
COC(=O)c1ccc(/C=N/NC(=O)CNc2cccc(C)c2)cc1	0
Cn1c(=O)c(=O)n(C)c2cc(S(=O)(=O)N3CCN(c4ccccc4F)CC3)ccc21	0
Cc1cc(C)c(S(=O)(=O)NCC2CCC(C(=O)NCc3ccccn3)CC2)c(C)c1 (stereo not given)	11
NC(=O)c1nc(-c2ccco2)nc2c1[nH]c(=O)n2-c1ccc(Cl)c(Cl)c1	24

Next section.
SMILES	Calb biofilm kill
CC1=NNC(=O)C1CC(=O)N/N=C/c1cccs1 (stereo not given)	12
Cc1cc2nc(-c3cccnc3SCC(=O)NC3CC3)[nH]c2cc1C	18
Cc1c(/C=N/NC(=O)c2cccnc2)c2ccccc2n1Cc1ccccc1	17
Fc1ccc(-c2nc3ccccc3c3nc4ccccc4n23)cc1	9
CCCCn1c(SCC(=O)Nc2nnc(C)s2)nnc1-c1ccncc1	8
Cc1cc(C)nc(SCc2cc(=O)c(OC(=O)c3ccc(S(=O)(=O)N(C)C)cc3)co2)n1	18
O=C(N/N=C\c1cccc([N+](=O)[O-])c1O)C1COc2ccccc2O1 (stereo not given)	1
CNc1nc(-c2ccc(OC)cc2)c(-c2ccc(OC)cc2)s1	17
COc1ccccc1CC(=O)NCc1nn(-c2ccccc2)nc1C	19
O=C(CCc1nc2ccccc2c(=O)[nH]1)Nc1ccc(Cl)c(Cl)c1	8
COc1ccc(C(=O)Nc2ccccc2C(=O)NC(Cc2ccc(O)cc2)C(=O)NNC(=O)c2ccccc2Cl)cc1 (stereo not given)	14
CCN1/C(=C/c2cc[n+](C)cc2)C=Cc2cc(C)ccc21	18
Cc1nnc(NC(=O)CSc2nccn2C)s1	7
CC(=O)NC1=NN(C(C)=O)C(C)(c2ccccn2)S1 (stereo not given)	25
Nc1nn(-c2ccccc2Cl)cc1-c1nn[nH]n1	20
Cc1cc(N2CCN(C)CC2)nc(=S)[nH]1	8
Cn1c(Sc2ccc(C(=O)O)cc2[N+](=O)[O-])nnc1-c1ccccc1	10
CC(C)C(=O)NC(=S)Nc1ccc(S(=O)(=O)N2CCN(C)CC2)cc1	0
CCCN(CC1CC1)C(=O)CCc1nnc(C(OC)c2ccccc2)o1 (stereo not given)	7
CC(c1ccccc1)n1c(Cn2ncc3ccccc3c2=O)n[nH]c1=S (stereo not given)	17
COc1cc(/C=N/NC(N)=O)cc([N+](=O)[O-])c1O	28
Cn1c(=O)c2c(ncn2C)n(C)c1=O	11
Cc1ccc(C)c(OCCn2cc(/C=C(\C#N)C(=O)NCC3CCCO3)c3ccccc32)c1 (stereo not given)	11
COc1ccc(/C=C(/NC(=O)c2ccccc2)C(=O)N/N=C/c2ccncc2)cc1	16
COc1cc(O)c(C(CCN2CCCCC2)c2ccc3c(c2)OCO3)c(OC)c1 (stereo not given)	9
N=c1n(CCO)c2ccccc2n1CCN1CCCCC1	12
CN(Cc1cccnc1)C(=O)c1cc(COc2ccc3ncccc3c2)on1	10
Cc1nccnc1Sc1ccccc1	25
CNC1=C(N(C(C)=O)c2ccc(Br)cc2)C(=O)c2ccccc2C1=O	14
CCCC(=O)Nc1nc(CC(=O)OCC)cs1	13
Cc1ccc(-c2c(C)n([O-])c3c([n+]2=O)CCCCC3)cc1	16
O=C(Cc1ccc(-n2c(=O)c3ccccc3n(Cc3cccc([N+](=O)[O-])c3)c2=O)cc1)NCC1CCCO1 (stereo not given)	10
C=CCOc1ccc(/C=N/NC(=O)C(=O)Nc2ccccn2)cc1OC	-12
CCOC(=O)N1CCN(C(=O)c2ccccc2NC(=O)c2ccc(C(C)(C)C)cc2)CC1	12
Cc1nnc(SCC(=O)c2ccccc2)n1Cc1ccccc1	19
O=C(Cc1ccccc1)Nc1ccccc1C(=O)N1CCCCCC1	-1
OCCC1CN(Cc2cccn2-c2ccccn2)CCN1C1CCCCC1 (stereo not given)	9
CCC(CC)c1nc(C#N)c(NCc2ccccc2)o1	-6
COC(=O)c1nn(-c2cccc(Cl)c2)ccc1=O	13
CNC(=S)N/N=C/c1ccc(N2CCOCC2)s1	-4
COc1ccc(N2CCc3c(C)nc4c(OC)cccc4c32)cc1	14
C/C(=N\NC(=O)CN1CCN(S(=O)(=O)c2ccc(C)cc2)CC1)c1cccnc1	22
OCCC1CN(Cc2cccc3nccnc23)CCN1Cc1ccc(F)c(F)c1 (stereo not given)	35
CCN(Cc1cnn(C)c1)Cc1nc(C(c2ccccc2)c2ccccc2)no1	4
CCOC(=O)N/N=C\c1ccc(OC(=O)c2ccco2)cc1	12

Screens deposited in PubChem by PCMD.
